CBFb RUNX1 block = CBF-beta/RUNX1 interaction disruption; Q01196+Q13951; Potency, µM (top dose mostly 59.8 µM), for inactives: at the highest dose activity, negative = inhibition, hits mostly inhibitors; 230,000 tested, under 10 active; AlphaScreen CBFb-His/RUNX1-biotin binding, biochemical; AID 1477; also: % of control where 0% means no effect
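AlphaScreen proximity signal reports loss of binding between His-tagged CBF-beta and biotin-labelled RUNX1, each at 30 nM. Proteins are pre-associated for 20 minutes, compounds added for 15 minutes, then beads for 90 minutes, all at ambient temperature.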
L3MBTL1 block = blocks human L3MBTL1; AlphaScreen L3MBTL1–H3K9me1 peptide binding; AID 485360; Potency, µM (doses to about 57.1 µM), for the others: at the top dose activity, negative = inhibition, most hits filed as inhibitors; 230,000 tested, 0.66% active; also: potency is read from the fitted curve at half-maximal effect; % is scaled to controls: 0 for no effect and ±100 for the full control effect; nearly all actives have a fitted effect of over 60% in size
Target sequence (Q9Y468 whole entry, looked up): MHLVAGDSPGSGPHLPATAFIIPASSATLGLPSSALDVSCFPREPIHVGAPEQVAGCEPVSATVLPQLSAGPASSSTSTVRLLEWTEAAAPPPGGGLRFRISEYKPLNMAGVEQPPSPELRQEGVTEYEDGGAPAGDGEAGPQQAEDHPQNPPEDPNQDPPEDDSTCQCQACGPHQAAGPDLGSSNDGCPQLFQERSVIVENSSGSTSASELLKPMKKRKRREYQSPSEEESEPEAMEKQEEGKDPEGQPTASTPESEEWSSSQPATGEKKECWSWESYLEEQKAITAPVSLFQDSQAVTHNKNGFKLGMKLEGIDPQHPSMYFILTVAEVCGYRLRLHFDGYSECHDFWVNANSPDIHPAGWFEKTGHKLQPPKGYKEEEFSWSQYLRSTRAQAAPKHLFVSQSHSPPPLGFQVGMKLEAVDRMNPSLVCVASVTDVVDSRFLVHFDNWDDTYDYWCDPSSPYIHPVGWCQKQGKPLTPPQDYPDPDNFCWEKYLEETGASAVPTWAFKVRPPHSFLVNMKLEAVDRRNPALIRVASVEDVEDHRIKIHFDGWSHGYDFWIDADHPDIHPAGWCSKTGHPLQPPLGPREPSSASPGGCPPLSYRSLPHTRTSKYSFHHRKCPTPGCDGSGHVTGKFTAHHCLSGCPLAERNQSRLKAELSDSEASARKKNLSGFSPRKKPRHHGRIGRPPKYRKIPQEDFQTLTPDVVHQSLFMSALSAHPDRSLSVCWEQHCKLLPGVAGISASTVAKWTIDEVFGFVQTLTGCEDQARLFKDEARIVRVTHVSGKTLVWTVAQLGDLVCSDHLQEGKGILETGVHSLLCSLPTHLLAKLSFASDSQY
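Displacement of a biotinylated histone H3(1-15) peptide monomethylated at Lys9 (75 nM) from L3MBTL1 (50 nM) was measured by AlphaScreen after a 30 min room-temperature compound incubation; cefsulodin titration served as intraplate control.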
IMPase Li cell = IMPase inhibition in cells with lithium potentiation. CHO-M1 cells, IP1 TR-FRET (IP-One), carbachol + lithium. Potency, µM (series often up to 59.4 µM), without a hit: at the highest dose activity, negative = IMPase inhibition, actives largely listed as inhibitors. 210,000 tested, 0.35% active;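 also: IP1 builds up when IMPase is blocked and the TR-FRET signal falls; potency is read from the fitted curve at half-maximal effect; plate controls were basal vehicle for no effect and high inhibitor control for full effect; nearly all actives have a fitted effect of over 50% in size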
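Readout is a homogeneous TR-FRET IP1 immunoassay (Ex 320, Em 665 and 620), where raised cytosolic IP1 lowers signal. Cells were CHO-M1 treated 30 min at 37C with test compounds plus a little lithium; AC50 values came from Hill-equation fitting.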
Epigenetic reg = derepresses silenced GFP reporter in murine cells. murine LDR cells, GFP reporter derepression, 30 h. Potency, µM (series often up to 53.9 µM), for the others: at the highest dose GFP activation, most hits filed as activators. 280,000 tested, 0.2% active; also: potency is read from the fitted curve at half-maximal effect; % of control where 0% means no effect; nearly all actives have a fitted effect of over 60% in size
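Murine LDR cells bearing a silenced CMV-driven GFP reporter were exposed to compound for 30 h at 37 C. After PBS washes, GFP-positive cells (20-120 um objects) counted by laser-scanning microplate cytometry.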
KinaseGlo FLuc = Kinase-Glo luciferase inhibition (counter-screen) | Q27757 | Kinase-Glo luciferase, ATP luminescence, 8 min | Potency, µM (top dose mostly 38.3 µM), for inactives: at the top dose activity change, negative = inhibition, usual class: inhibitors | 200,000 tested, 0.28% active; also: potency is read from the fitted curve at half-maximal effect; % is scaled to controls: 0 for no effect and ±100 for the full control effect; nearly all actives have a fitted effect of over 60% in size
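Compound is pinned into ATP-containing buffer (10 uM ATP, imidazole pH 7.2, 7 mM MgCl2). Kinase-Glo luciferase reagent is then added. Light output is recorded following an 8-min room-temperature incubation.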
HTT aggregate = mutant huntingtin aggregation inhibition; PC12 HttQ103-GFP aggregates, Acumen cytometry, 40 h; Potency, µM (highest dose often 46.1 µM), for the others: at the top dose activity change, negative = inhibition, actives largely listed as inhibitors; 220,000 tested, 1.1% active; also: potency is read from the fitted curve at half-maximal effect; % is scaled to controls: 0 for no effect and ±100 for the full control effect; nearly all actives have a fitted effect of over 60% in size
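Huntingtin Q103 exon 1–GFP aggregates in induced PC12 cells (100 nM tebufenozide) were quantified by cytometry from lysates, with compounds dosed in titration.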
Numbers without * were called inactive; u = inconclusive; x = not tested or not shown; & = joins results of further samples; [ ] = another dose, or the depositor's remark. Calls follow the shape of the dose curve; as a rule, active = well fitted curve in the direction sought with a large enough effect; inconclusive = small, poorly fitted or top-dose-only effect, or another doubt; inactive = no such curve, though single readings can be large; an effect the other way counts as inactive or inconclusive. Not all compounds are listed (hit frequency here may not be typical).

Below each compound – CBFb RUNX1 block, L3MBTL1 block, IMPase Li cell, Epigenetic reg, KinaseGlo FLuc, HTT aggregate
O=C(COC(=O)c1ccccc1)Nc1cccc(S(=O)(=O)NC2=NCCCCC2)c1
  5%, -11%, -5%, -0.9%, 1%, 7%
NC(=O)Nc1ccc(C(=O)OCC(=O)Nc2cccc(S(=O)(=O)NC3=NCCCCC3)c2)cc1
  9%, x, x, -2.8%, x, -13%[9.22 µM]
Cc1ccc(NC(=S)NC(=O)c2ccc(F)cc2)cc1S(=O)(=O)Nc1cccc(Cl)c1
  -5%, -16%, -11%, 2.8%, 7%, 6%
Cc1ccc(NC2SC(=O)N(CC(=O)O)C2=O)cc1 (configuration not stated)
  1%, x, 17%[38.3 µM], -0.1%, -2%, 18%
O=C(O)c1ccc2c(=O)n3c(nc2c1)/C(=C/c1cccc(Cl)c1Cl)CCCC3
  4%, 8%, 1%, -0.9%, -4%, 23%
CCc1ccccc1NC(=O)/C(=C/c1ccccc1)c1ccccc1
  27%, 36%[activator], 22%, 5.7%, -1%, u
C=CCn1c(CNC(=O)c2ccccc2F)nnc1SCc1nc2ccccc2c(=O)[nH]1
  -2%, x, 2%, -0.3%, x, -4%
N#CC1=C(O)CCCn2c1nc1ccccc1c2=O
  7%, -1%, -11%[38.3 µM], 0.5%, -10%, 3%
CCOC(=O)C(CCSC)NC(=O)CN (configuration not stated)
  3%, 6%, -7%[38.3 µM], -1.0%, -4%, -1%
Cc1ccc2cc(C)c(N3CCN(c4ccccn4)CC3)nc2c1
  0%, x, 36%[38.3 µM], 1.0%, -1%, u
CCc1cc(-c2n[nH]c(C)c2-c2nc(C)cs2)c(O)cc1OC
  -7%, -22%, 2%, -1.2%, x, -14%[9.22 µM]
c1cnc2ccc(C(c3nnnn3C3CCCC3)N3CCN(c4nc5ccccc5s4)CC3)cc2c1 (configuration not stated)
  -14%, x, 42%[38.3 µM], -1.0%, -5%, u
COc1ccc(F)cc1CN1CCN(c2cc(C)nc3c4c(C)cc(C)nc4nn23)CC1
  14%, 24%, 6%[38.3 µM], -1.9%, -1%, -17%
CCc1ccc(N2C(=O)C3ON(c4ccccc4)C(c4ccco4)C3C2=O)cc1 (configuration not stated)
  3%, -2%, x, -2.2%, x, -1%
O=C1c2ccccc2C2=Nc3ccccc3SC(c3ccc(Cl)cc3)C12 (configuration not stated)
  x, -28%, 3%, 0.0%, -2%, -31%
CC1(OC(=O)CCc2ccccc2)C(=O)C=C2C=C(c3ccsc3)OC=C2C1=O (configuration not stated)
  u, x, 6%, -0.3%&-2.3%, 0%, 16%[9.22 µM]
CCN1CCN(c2nc3c(C)cccn3c(=O)c2/C=C(\C#N)S(=O)(=O)c2ccccc2)CC1
  11%, -12%, -4%[38.3 µM], -0.8%, 4%, u
COC(=O)c1sc(-c2cccs2)cc1NC(=O)/C=C/C(=O)O
  6%, x, x, -1.2%, x, 6%[9.22 µM]
COc1ccc(/C=c2/sc3n(c2=O)C(c2ccccc2OC)C2=C(N=3)c3ccccc3CC2)cc1O (configuration not stated)
  -16%, -6%, -12%[38.3 µM], -1.2%, -2%, u
O=C(Nc1cccc(Cl)c1N1CCCCC1)c1ccc2c(c1)OCCO2
  4%, 8%, 36%[38.3 µM], 0.0%, 1%, -14%
Cc1ccc(Cl)cc1N1CCN(C(CC(C)C)c2nnnn2CC2CCCO2)CC1 (configuration not stated)
  1%, x, 18%[38.3 µM], 1.0%, -5%, -17%
Cc1noc(C)c1S(=O)(=O)N(CCc1ccccc1)Cc1ccccc1
  26%, 35%[activator], 33%[activator][38.3 µM], -1.1%, -2%, -7%
COc1ccc(N2CC(C)Cn3c2nc2c3c(=O)n(Cc3ccc(F)cc3)c(=O)n2C)c(OC)c1 (configuration not stated)
  1%, -5%, 7%[38.3 µM], 0.0%, -1%, u
COc1ccc(CN2CCCCC2C(=O)Nc2ccc(OC)c(OCC(C)C)c2)cc1OC (configuration not stated)
  7%, 23%, 12%, -2.3%, 4%, -9%
CC[C@@H](C)[C@H]1O[C@]2(CC[C@@H]1C)C[C@@H]1C[C@H](C/C=C(/C)[C@H](O[C@@H]3C[C@H](OC)[C@H](O[C@@H]4C[C@H](OC)[C@@H](O)[C@H](C)O4)[C@H](C)O3)[C@@H](C)/C=C\C=C3CO[C@@H]4[C@H](O)C(C)=C[C@@H](C(=O)O1)[C@]34O)O2 (tested in a mixture with another compound)
  1%[21.7 µM], x, 21%, 0.1%, -5%, x
CCN1c2ccccc2-c2nc3ccccc3n2C1c1cccnc1 (configuration not stated)
  15%, 13%, -5%[38.3 µM], 0.0%, 1%, 11%
Cc1nc(SCCCSc2n[nH]c(C)n2)n[nH]1
  -1%, 14%[11.4 µM], 6%, -1.0%, 3%, 2%
CC(C)(C)C1CCc2c(sc(NC(=O)c3ccco3)c2C(N)=O)C1 (configuration not stated)
  2%, 6%, 5.6µM*, -1.2%, 4%, -9%
CC1=C(C(=O)OCC2CCCO2)C(c2ccccc2OC(C)C)C2=C(CC(c3ccco3)CC2=O)N1 (configuration not stated)
  11%, -14%, 6%[38.3 µM], 0.0%, -3%, -8%
CCOC(=O)c1cc(-c2ccc(OC(F)F)cc2)nc2nc(SC)[nH]c(=O)c12
  13%, 7%, x, -0.9%, x, -9%
CCOc1ccc(-c2csc(NC(=O)CSC3=NC(=O)CN3C(C)=O)n2)c2ccccc12
  -19%, -17%, 5%, 2.3%, 7%, u
COc1ccc(-c2csc(NC(=O)c3ccc(N4C(=O)CCC4=O)cc3)n2)cc1OC
  7%, 10%, u, 4.1%, 1%, 13%
COc1ccccc1-n1c(-c2ccc(NS(C)(=O)=O)cc2)n[nH]c1=S
  2%, x, 10%[38.3 µM], -3.9%, -2%, -11%
CCOC(=O)c1c(NC(=O)Cn2nnc3ccccc32)sc2c1CCC(C)C2 (configuration not stated)
  6%, -1%, 0%[38.3 µM], -1.6%, 0%, -24%
O=C(OC(c1ccc(NS(=O)(=O)c2ccccc2)cc1)(C(F)(F)F)C(F)(F)F)c1ccccc1
  -2%, -1%, 23%, 1.0%, -2%, 10%
O=C(OC1CCN(c2ncc(C(F)(F)F)cc2Cl)CC1)c1ccc(Cl)cc1
  4%, -4%, -5%[38.3 µM], -0.4%, -6%, 15%
O=S(=O)(c1ccc(F)cc1)c1nc(-c2ccccc2F)oc1N1CCCCC1
  2%, x, 29%[38.3 µM], 0.0%, 4%, -25%
O=C(Nc1ccc(-c2nc3cc(NC(=O)c4cccs4)ccc3o2)cc1)c1cccs1
  -1%, 51%[activator], -3%[38.3 µM], 0.0%, -4%, 37%
COC(=O)c1sc(NC(=O)c2ccc([N+](=O)[O-])o2)c(C#N)c1C
  -8%, x, x, 0.3%, x, 11%[9.22 µM]
O=C1OC(c2ccc(Cl)cc2)=N/C1=C\C=C\c1ccco1
  u, u, 1%, 6.5%, 0%, 17%

Some of these compounds in order of molecular weight, lowest first:
Below each compound – CBFb RUNX1 block, L3MBTL1 block, IMPase Li cell, Epigenetic reg, KinaseGlo FLuc, HTT aggregate
O=C1OC(c2ccc(Cl)cc2)=N/C1=C\C=C\c1ccco1
  u, u, 1%, 6.5%, 0%, 17%
CCN1c2ccccc2-c2nc3ccccc3n2C1c1cccnc1 (configuration not stated)
  15%, 13%, -5%[38.3 µM], 0.0%, 1%, 11%
CCOC(=O)c1c(NC(=O)Cn2nnc3ccccc32)sc2c1CCC(C)C2 (configuration not stated)
  6%, -1%, 0%[38.3 µM], -1.6%, 0%, -24%
Cc1ccc(Cl)cc1N1CCN(C(CC(C)C)c2nnnn2CC2CCCO2)CC1 (configuration not stated)
  1%, x, 18%[38.3 µM], 1.0%, -5%, -17%
COc1ccc(-c2csc(NC(=O)c3ccc(N4C(=O)CCC4=O)cc3)n2)cc1OC
  7%, 10%, u, 4.1%, 1%, 13%
O=C(Nc1ccc(-c2nc3cc(NC(=O)c4cccs4)ccc3o2)cc1)c1cccs1
  -1%, 51%[activator], -3%[38.3 µM], 0.0%, -4%, 37%
COc1ccc(N2CC(C)Cn3c2nc2c3c(=O)n(Cc3ccc(F)cc3)c(=O)n2C)c(OC)c1 (configuration not stated)
  1%, -5%, 7%[38.3 µM], 0.0%, -1%, u
CC1=C(C(=O)OCC2CCCO2)C(c2ccccc2OC(C)C)C2=C(CC(c3ccco3)CC2=O)N1 (configuration not stated)
  11%, -14%, 6%[38.3 µM], 0.0%, -3%, -8%

(continued)
Below each compound – CBFb RUNX1 block, L3MBTL1 block, IMPase Li cell, Epigenetic reg, KinaseGlo FLuc, HTT aggregate
CS(=O)(=O)c1nc(-c2ccccc2)cc(-c2ccccc2)c1C#N
  -5%, 3%, 1%[38.3 µM], 3.6%, -4%, u
COCCn1nnnc1C(c1cc2cc(C)ccc2[nH]c1=O)N1CCc2ccccc21 (configuration not stated)
  8%, x, 9%[38.3 µM], 0.0%, -2%, -3%
O=C1CC(c2cccc(Cl)c2)CC(O)=C1C=Nc1cccc(Cl)c1 (configuration not stated)
  4%, 2%, 12%, -1.5%, -2%, u
COc1ccc(C(c2nnnn2C2CCCCC2)N2CCN(c3ccccc3F)CC2)cc1 (configuration not stated)
  -2%, x, 22%[38.3 µM], -1.0%, 0%, -18%
Clc1ccc(-c2nnc(-c3ccccc3)nc2N2CCSCC2)cc1
  9%, x, 33%[activator][38.3 µM], -1.2%, 1%, -25%
N#Cc1c(N2CCN(C(=O)c3ccccc3)CC2)nc(-c2ccccc2)c2c1CCCC2
  u, x, 57%[activator][38.3 µM], -0.8%, -2%, u
COC(=O)c1c(NC(NC(=O)C(C)(C)C)C(Cl)(Cl)Cl)sc2c1CCC2 (configuration not stated)
  -1%, 1%, u, -2.9%, -4%, 3%
CCN(CC)c1ccc2c(Nc3ccccc3)c(C=O)c(=O)oc2c1
  3%, 6%, 17%, -1.4%, 0%, 20%[9.22 µM]
COC(=O)c1sc(-c2ccccc2)cc1NC(=O)C1CC1
  9%, x, -15%, -1.4%, 1%, u
O=C(NC1CCCCC1)c1cnn2c(C(F)(F)F)cc(-c3ccco3)nc12
  -3%, 2%, 17%[38.3 µM], -2.7%, -2%, -8%
FC(F)(F)c1cc(-c2ccc(Cl)cc2)nc(NCc2cccnc2)n1
  6%, x, 41%[activator][38.3 µM], 1.1%, -2%, u
CCOc1ccccc1NC1c2ccccc2C(=O)N1c1ccc(C)cn1 (configuration not stated)
  -1%, x, 9%[38.3 µM], 0.1%, -2%, -6%
CC(=O)N(CCC(Cc1ccccc1)c1ccc2c(c1)OCO2)Cc1ccc(Cl)cc1 (configuration not stated)
  4%, -2%, 19%, 0.2%, -1%, u
COC(=O)C1=CN(CCOC23CC4CC(CC(C4)C2)C3)C=C(C(=O)OC)C1c1ccsc1
  u, 109%[activator], u, -1.2%, -2%, -16%

Compound activity deposited in PubChem by National Center for Advancing Translational Sciences (NCATS).
